# NS1 function inh: blocks influenza NS1 protein function; Potency, µM (series often up to 46.1 µM), for the others: at the top dose activity, positive = more growth; 270,000 tested, 0.4% active; S. cerevisiae slowed by influenza A NS1, growth recovery by OD600; AID 2326; active means well fitted rising curve with a large enough effect; inconclusive means small, poorly fitted or top-dose-only effect; inactive means no such curve, though single readings can be large or run the other way; note: nearly all actives have a fitted effect of over 50% in size
#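 In this qHTS, NS1 from influenza A is expressed in budding yeast, where it slows growth. Cells are switched from glucose to 2% galactose medium (pH 6.0, -URA), treated with compound, and growth recovery is read at OD600.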
# Cruzain inh Det: inhibitors of Trypanosoma cruzi cruzain with detergent. purified cruzain, Z-FR-AMC fluorescence, 0.01% Triton. Potency, µM, inactives show max response, negative = inhibition, usual class: inhibitors. 200,000 tested, 0.43% active;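 note: plate controls were neutral wells for no effect and buffer without enzyme for full effect; nearly all actives have a fitted effect of over 40% in size; top concentration of the series not given in the record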
# Target sequence (P25779 123-467 limits assumed): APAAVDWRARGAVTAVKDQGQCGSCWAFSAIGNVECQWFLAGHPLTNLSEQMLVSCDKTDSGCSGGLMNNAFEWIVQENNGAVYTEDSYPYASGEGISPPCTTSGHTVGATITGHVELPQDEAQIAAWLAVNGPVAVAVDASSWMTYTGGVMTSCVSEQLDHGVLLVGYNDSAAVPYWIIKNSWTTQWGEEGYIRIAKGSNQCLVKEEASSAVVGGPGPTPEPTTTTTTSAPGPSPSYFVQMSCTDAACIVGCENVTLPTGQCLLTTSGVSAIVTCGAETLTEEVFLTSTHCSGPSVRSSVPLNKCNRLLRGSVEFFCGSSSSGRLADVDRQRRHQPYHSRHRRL
#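 Purified cruzain (1.5 nM final) was preincubated with compounds for 15 min at room temperature in 100 mM sodium acetate pH 5.5, 5 mM DTT, 0.01% Triton X-100. Reaction started with 2 uM Z-FR-AMC; AMC fluorescence change over 60 s gave activity.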
# Cruzain noTriton: blocks cruzain activity in detergent-free assay. Potency, µM, for inactives: max response, negative = inhibition, usual class: inhibitors. 200,000 tested, 2.3% active. purified cruzain, Z-FR-AMC fluorescence, no detergent. AID 1476;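 note: plate controls were enzyme without inhibitor for no effect and buffer without enzyme for full effect; nearly all actives have a fitted effect of over 40% in size; top concentration of the series not given in the record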
#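 Detergent-free condition (0.00005% Triton X-100) in acetate buffer pH 5.5 with DTT. 1.5 nM enzyme and compound were pre-mixed 15 min, then 2 uM Z-FR-AMC substrate added; reaction progress from fluorescence change between first and third reads (60 s).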
# Lassa entry inh: inhibitors of Lassa virus binding or cell entry; Lassa virus pseudotype entry inhibition, cell reporter; control for the full effect not named in the record; Potency, µM (top dose mostly 37.9 µM), without a hit: top-dose activity change, negative = inhibition, hits mostly inhibitors; 300,000 tested, 1.2% active; active means well fitted inhibition curve with a large enough effect; inconclusive means small, poorly fitted or top-dose-only effect, or effect the other way; inactive means flat fitted curve, though single readings scatter; tested in HEK293 cells; note: % is set by controls: 0 for no effect and ±100 for the full control effect; nearly all actives have a fitted effect of over 50% in size; luciferase read-out
# StopGo reporter: lowers the luciferase signal of an FMDV 2A StopGo reporter. human cells with a luciferase reporter of 2A StopGo recoding; control for the full effect not named in the record. Potency, µM (highest dose often 57.9 µM), for the others: top-dose signal change, negative = less light. 410,000 tested, 1.2% active; active = well fitted falling curve with a large enough effect; inconclusive = small, poorly fitted or top-dose-only effect; inactive = no such curve, though single readings can be large or run the other way; tested in HEK293T cells; note: % is set by controls: 0 for no effect and ±100 for the full control effect; nearly all actives have a fitted effect of over 45% in size; luciferase light after 4 h
# Marburg entry inh: inhibitors of Marburg virus binding or cell entry; Marburg virus pseudotyped entry inhibition, cell reporter; control for the full effect not named in the record; about a third of the inactives were read at about 46 µM; Potency, µM (top dose mostly 37.8 µM), for the others: at the highest dose activity change, negative = inhibition, actives largely listed as inhibitors; 300,000 tested, 1.8% active; AID 540276; active = well fitted inhibition curve with a large enough effect; inconclusive = small, poorly fitted or top-dose-only effect, or effect the other way; inactive = flat fitted curve, though single readings scatter; tested in HEK293 cells; about a fifth of its hits are not listed in these tables; note: % is set by controls: 0 for no effect and ±100 for the full control effect; luciferase read-out
# RE007 growth inh: less growth of the S. pombe RE007 Vpr strain | S. pombe RE007 Vpr strain, BacTiter-Glo ATP luminescence, 24 h; control for the full effect not named in the record | Potency, µM (highest dose often 92.2 µM), inactives show top-dose activity change, negative = less growth | 360,000 tested, 0.21% active; active = well fitted falling curve with a large enough effect; inconclusive = small, poorly fitted or top-dose-only effect; inactive = no such curve, though single readings can be large or run the other way;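 note: % is set by controls: 0 for no effect and ±100 for the full control effect; nearly all actives have a fitted effect of over 50% in size; the assay follows cell death caused by Vpr and the record does not say whether a fall means rescue or toxicity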
#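 Fission yeast RE007 carrying one integrated HIV-1 vpr copy, seeded at OD 0.01 in PMG+AL medium with 23 nL pinned compound. Grown 24 h at 30 degrees; viability read by BacTiter-Glo luminescence after 5 min.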
# SARS PLpro yeast: inhibitors of SARS-CoV papain-like protease in yeast; S. cerevisiae expressing SARS-CoV PLpro, growth rescue; control for the full effect not named in the record; Potency, µM (titrated, usually from 32.9 µM), inactives show at the top dose activity, positive = growth rescue; 330,000 tested, 0.19% active; active means well fitted rising curve with a large enough effect; inconclusive means small, poorly fitted or top-dose-only effect; inactive means no such curve, though single readings can be large or run the other way; note: 0% is about no effect; nearly all actives have a fitted effect of over 55% in size; growth read by luminescence after 48 h
# The depositor's hits bear a star; ? = inconclusive; · = not tested or not shown; & = joins results of further samples; [ ] = dose if it differs, or a comment. Unless noted, calls come from the whole dose curve; as a rule, active = well fitted curve in the direction sought with a large enough effect; inconclusive = small, poorly fitted or top-dose-only effect, or another doubt; inactive = no such curve, though single readings can be large; an effect the other way counts as inactive or inconclusive. Potency is the fitted concentration of half-maximal effect.
# Below each compound: NS1 function inh	Cruzain inh Det	Cruzain noTriton	Lassa entry inh	StopGo reporter	Marburg entry inh	RE007 growth inh	SARS PLpro yeast
Cc1cc(N2CCN(c3ccccc3)CC2)n2cc(-c3ccccc3)nc2n1
→ -67%	-15%	?	?	-13%	?	21%	-17%
CC(=O)Nc1cc(S(=O)(=O)Nc2ccc(C)cc2)c(C)cc1C
→ 14%	4.3%	6%	-3%	69%[activator]	-1%[46.1 µM]	-7%	-1%
Cc1cc(=O)[nH]c(-n2[nH]c3c(c2=O)CCCC3)n1
→ -5%	6.9%	-10%	8%	8%	-1%	-2%	-7%
COc1ccc(OCC(=O)NNC(=O)c2cccc(O)c2)cc1
→ ·	·	·	15%	-4%	23%[46.1 µM]	6%	4%
O=C1CCc2cc(S(=O)(=O)NC(Cc3ccccc3)C(=O)NCCC3=CCCCC3)ccc2N1 (stereo not given)
→ 3%	-0.2%	-8%	·	-24%	-1%	12%	-8%
COc1ccc(CNC(=O)COC(=O)c2c(-c3c(F)cccc3Cl)noc2C)cc1OC
→ -4%	0.1%	?	1%	?	-5%	-3%	2%
COc1cccc(OC)c1NC(=O)CN1CCC(NC(=O)c2cccc(F)c2)CC1
→ 7%	0.8%	0%	11%	-2%	-2%	11%	-7%
Cc1ccc(Cl)cc1NC(=O)N[C@@H](C)C(=O)O
→ 2%	7.3%	4%	-9%	-2%	22%	6%	3%
CS(=O)(=O)N(Cc1ccc(C(=O)NCCSc2ccccn2)cc1)c1ccccc1
→ 1%	-2.9%	5%	?	-2%	?	3%	10%
CCCCOc1ccc(C(=O)Nc2ccc(N3CCN(C(=O)C(C)C)CC3)cc2)cc1
→ 2%	-0.6%	?	?	?	-7%[46.1 µM]	4%	-8%
O=C(NCCCn1ccnc1)c1cccc(S(=O)(=O)N2CCCCCC2)c1
→ 2%	-2.2%	-13%	-16%	-14%	-1%	4%	-4%
NC(=O)[C@H]1CC2(CC(c3cccc(NC(=O)COc4ccc(Cl)cc4)c3)=NO2)CN1C(=O)c1ccccc1C(=O)c1ccccc1 (stereo not given in full)
→ 0%	·	·	·	-28%	·	5%	2%
CC1CCCC(NC(=O)C2CCCN2S(=O)(=O)c2cccc3nsnc23)C1C (stereo not given)
→ -4%	-1.0%	?	·	-5%	·	0%	-9%
O=c1[nH]c2ccc(Cl)cc2[nH]1
→ ·	·	·	-14%[46.1 µM]	-13%	-2%[46.1 µM]	7%	·
CCCC(=O)N(c1ccc2oc(C)c(C(C)=O)c2c1)S(=O)(=O)c1ccc(CC)cc1
→ ·	-7.0%	10%	?	?	·	·	·
CCOC(=O)c1cc2c(=O)n3ccccc3nc2n(CC(C)C)c1=NC(=O)C(C)(C)Oc1ccc(Cl)cc1
→ ·	-3.3%	5%	10%[46.1 µM]	-28%	15%[46.1 µM]	·	·
Cc1ccc(NC(=O)C(=O)NCCN2CCN(S(=O)(=O)c3ccccc3)CC2)cc1C
→ 5%	·	·	1%	-26%	-23%[46.1 µM]	-16%	0%
Cc1cccn2c(=O)c3cc(C#N)c(=O)n(-c4nnc(SCc5ccc(F)cc5)s4)c3nc12
→ ·	3.3%	-10%	-6%[46.1 µM]	-11%	9%[46.1 µM]	·	·
O=C(c1cc(-c2cccc(Cl)c2)on1)N1CCCCCC1
→ -23%	·	·	?	21%	-16%[46.1 µM]	-25%	0%
Cc1ccc(-c2cnc(C3CC3)o2)cc1S(=O)(=O)Nc1ccc(F)cc1Cl
→ ·	-5.6%	-14%	9%[46.1 µM]	47%[activator]	·	·	·
CNC(=S)N(CCc1c(C)[nH]c2ccc(F)cc12)Cc1ccco1
→ -1%	·	·	2%[46.1 µM]	32%[activator]	?	3%	-3%
Cc1ccc(N(Cc2ccc(C(=O)NN=C3CCN(C)CC3)cc2)S(C)(=O)=O)cc1C
→ 3%	-0.6%	1%	1%	-21%	-29%	-6%	-9%
N#Cc1ccc2[nH]cc(CCO)c2c1
→ 1%	·	·	·	2%	·	5%	3%
CCCOC(=O)c1c(-c2ccccc2)nc(CC)c(C(=O)SCC)c1CCC
→ -1%	-7.3%	-5%	?	-28%	?	16%	·
CCOc1ccc(NC(=O)Cn2c(=O)n(CCCCCC(=O)NCc3ccccc3)c(=O)c3sccc32)cc1
→ ·	-2.1%	-10%	-1%[46.1 µM]	-24%	16%[46.1 µM]	·	·
CC1CCc2c(sc(NC(=O)c3cc(-c4ccc(Br)cc4)on3)c2C(N)=O)C1 (stereo not given)
→ ·	-1.4%	0%	13%[46.1 µM]	1%	?	·	·
Cc1ccc(NS(=O)(=O)c2cc(NC(=O)c3cc4c(s3)CCCC4)ccc2C)c(C)c1
→ 8%	-0.4%	32µM*	-4%	6%	?	11%	8%
COc1ccc(NC(=O)C23CC4CC(C2)CC(n2cnc(Br)n2)(C4)C3)c(C)c1
→ -15%	4.1%	4%	?	-14%	-9%	7%	-19%
COc1ccc(S(=O)(=O)NNC(=O)c2cc3c4ccccc4n(C)c3s2)cc1
→ 3%	-11%	-21%	?	13%	?	16%	0%
Cc1ccc(NC2CCCN(C(=O)CCC3=NNC(=O)CC3)C2)cc1C (stereo not given)
→ 16%	·	·	15%	-2%	5%	-1%	1%
O=C(CSc1nc(C2CC2)nc2c1cnn2-c1ccccc1)Nc1c[nH]c(=O)[nH]c1=O
→ ·	·	·	?	?	?	29%	0%
CC(=O)Nc1ccc2c(c1)OCCOCCOc1cc(NC(C)=O)ccc1OCCOCCOCCO2
→ 5%	3.1%	-4%	·	·	-2%	·	-9%
COCCNC(=S)NNC(=O)c1ccco1
→ 3%	2.8%	-5%	?	56%[activator]	-1%	-5%	18%
Cc1cccc(OCC(=O)N2CCC(c3ccccc3)C2)c1 (stereo not given)
→ -8%	2.3%	-8%	1%	·	?	5%	-3%
O=C(CCl)N1c2ccccc2OCC1c1ccccc1 (stereo not given)
→ ?	-1.2%	-1%	0%	18µM*	19%	-26%	-85%
CCOC(=O)CC1COCCN1Cc1cn[nH]c1-c1cc(OC)c(OC)c(OC)c1 (stereo not given)
→ 2%	·	·	·	-6%	·	8%	1%
COc1ccc(S(=O)(=O)N2CCc3ccccc32)cc1C(=O)OCC(=O)c1c(N)n(C)c(=O)n(C)c1=O
→ 4%	·	·	-11%	-2%	-4%[46.1 µM]	-17%	-1%
COc1ccc(S(=O)(=O)N2CCC(C(=O)NCC3CCCO3)CC2)cc1 (stereo not given)
→ -21%	1.0%	-11%	3%	-23%	1%	-5%	9%
N#Cc1ccccc1Cn1c(=O)n(CCCCC(=O)NCc2ccc3c(c2)OCO3)c(=O)c2ccccc21
→ ·	-1.8%	1%	-29%[46.1 µM]	12%	14%[46.1 µM]	·	·
N#C/C(=C\c1ccc(N2CCOCC2)o1)C(=O)N1CCOCC1
→ 5%	-18%	-12%	?	43%[activator]	?	9%	-2%
Cc1ccc(NC(=O)Cn2c(=O)n(CCC(=O)NCCc3ccccc3)c(=O)c3ccccc32)cc1
→ ·	0.9%	-1%	?	20%	9%[46.1 µM]	·	·
Cc1ccc2c(c1)C(=O)OC(C(=O)Nc1ncc(Cc3ccccc3)s1)C2 (stereo not given)
→ ·	-1.0%	24%	2%[46.1 µM]	-11%	29%[46.1 µM]	·	·
CC(=O)NCCn1c(SCC(=O)NCC2CCCO2)nc2ccccc2c1=O (stereo not given)
→ 3%	-1.7%	-4%	?	-21%	1%	9%	0%
CN(C)CCCNC(=O)c1cc(S(=O)(=O)N2CCOCC2)ccc1F
→ 8%	-3.7%	5%	?	2%	11%	7%	3%
O=C(Cc1ccccc1)Nc1c(C(=O)Nc2ccccc2F)oc2ccccc12
→ ·	-1.2%	16%	12%[46.1 µM]	2%	3%[46.1 µM]	·	·
CCCNC(=O)c1cc(Cl)c(NC(=O)C2=C(C)OCCS2)cc1OC
→ -4%	·	·	·	-1%	·	1%	0%
Cc1ccc(C(CC(=O)O)Nc2nc(N3CCOCC3)nc(N3CCOCC3)n2)cc1 (stereo not given)
→ -20%	3.1%	21%	7%&15%	-11%	?	-8%	2%
COC(=O)CCCCCC(CCC(=O)OC)NC(C)=O (stereo not given)
→ 4%	1.3%	6%	-1%	0%	-29%	11%	-6%
CCCCNC(=O)C(CC)Sc1nc2ccccc2c(=O)n1Cc1ccco1 (stereo not given)
→ ·	-2.0%	-9%	?	-21%	·	·	·
CN(CC(=O)NCc1ccccc1Cl)S(=O)(=O)c1ccc2c(c1)c(=O)n(C)c(=O)n2C
→ ·	2.8%	-12%	1%[46.1 µM]	7%	18%[46.1 µM]	·	·
COCCC1CCCCN1C(=O)c1ccc(OC)c(OC2CCN(C(C)=O)CC2)c1 (stereo not given)
→ ·	·	·	-2%	-6%	6%	-10%	·
COc1ccccc1-c1nnc(SC(C)C(=O)N2CCOCC2)o1 (stereo not given)
→ ·	·	·	-3%[46.1 µM]	8%	-19%	-11%	·
CC(C)(C)OC(=O)N1CCC(c2c(C(=O)NCCN3CCOCC3)cnn2-c2ccccc2)CC1
→ ·	-0.1%	-7%	1%[46.1 µM]	0%	·	·	·
NC(=O)c1cc(S(=O)(=O)NCC2CCC(C(=O)Nc3cccc(Cl)c3)CC2)cs1 (stereo not given)
→ ·	0.1%	7%	17%[46.1 µM]	-11%	·	·	·
CC(C)(C)C(=O)C(Cc1ccccc1)n1cncn1 (stereo not given)
→ -147%	3.5%	1%	-23%	-17%	?	18%	-34%
CN(CC(=O)N1CCCC1)S(=O)(=O)c1ccc(Cl)cc1
→ 2%	4.1%	-2%	3%	-9%	14%	-8%[3.69 µM]	-2%
COc1ccccc1N1CCN(CCCOc2ccc(F)cc2)CC1
→ -2%	3.2%	4%	-6%	-12%	?	9%	-3%
CCC(C(=O)Nc1ccc2c(c1)OCCO2)n1nnc2ccccc2c1=O (stereo not given)
→ -3%	·	·	·	81%[activator]	·	3%	13%
CCOC(=O)c1cc2sccc2n1CC(=O)c1ccc2c(c1)OCCO2
→ -12%	-4.1%	-9%	17%	·	?	0%	4%
S=C(NCC1CC1)N/N=C/c1ccccc1Cl
→ -5%	·	·	-13%	13%	?	4%	0%

# From PubChem
